# TRPML1 agonist: activates the human TRPML1 channel. actives 0.12% (n = 410,000). Q9GZU1. activation, % (test concentration not listed). TRPML1-expressing cells, Ca2+ dye fluorescence, FDSS; host cell line not named in the record; reference of the full effect not given here; in the data active = activation above about 50%; inconclusive = about 30% to 50%; inactive = below about 30%; also: 0% is about no effect; the text of the record puts the active cut at 80%
# Target sequence (Q9GZU1 whole entry, looked up): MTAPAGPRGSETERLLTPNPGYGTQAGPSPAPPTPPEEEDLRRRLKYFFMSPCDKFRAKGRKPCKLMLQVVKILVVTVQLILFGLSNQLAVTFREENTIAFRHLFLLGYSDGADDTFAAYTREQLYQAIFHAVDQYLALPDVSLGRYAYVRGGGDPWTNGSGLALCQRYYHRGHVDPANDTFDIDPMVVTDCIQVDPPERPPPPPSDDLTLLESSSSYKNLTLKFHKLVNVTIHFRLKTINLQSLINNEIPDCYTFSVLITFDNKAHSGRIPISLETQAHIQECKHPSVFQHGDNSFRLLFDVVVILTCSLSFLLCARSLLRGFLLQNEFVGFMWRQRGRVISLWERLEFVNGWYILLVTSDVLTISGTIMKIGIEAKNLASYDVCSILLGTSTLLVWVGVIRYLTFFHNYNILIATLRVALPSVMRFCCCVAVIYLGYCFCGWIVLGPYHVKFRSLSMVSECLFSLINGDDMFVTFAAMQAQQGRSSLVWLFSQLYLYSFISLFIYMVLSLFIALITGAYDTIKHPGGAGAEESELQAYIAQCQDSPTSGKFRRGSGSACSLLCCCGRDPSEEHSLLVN
#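 Kinetic FDSS Ca2+ read in Tet-induced TRPML1-DL cells (ABD Ca8 dye plus quencher, 45-90 min RT loading): baseline, then compound, then 110 s agonist window; EC80 agonist 54-4 at 4uM final added afterwards for a 110 s antagonist window.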
# D2 PAM: potentiates the human D2 dopamine receptor allosterically; P14416; DiscoveRx D2 beta-arrestin cells, luminescence, 90 min; 100% = 57 uM dopamine signal; potentiation, % (no concentration beside the values); actives 0.23% (n = 360,000); active = potentiation of 50% or more; inconclusive = 30% to 50%; inactive = 30% or less;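 also: compound concentration not given in the record; tested on top of an EC20 dose of dopamine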
# Target sequence (P14416 whole entry, looked up): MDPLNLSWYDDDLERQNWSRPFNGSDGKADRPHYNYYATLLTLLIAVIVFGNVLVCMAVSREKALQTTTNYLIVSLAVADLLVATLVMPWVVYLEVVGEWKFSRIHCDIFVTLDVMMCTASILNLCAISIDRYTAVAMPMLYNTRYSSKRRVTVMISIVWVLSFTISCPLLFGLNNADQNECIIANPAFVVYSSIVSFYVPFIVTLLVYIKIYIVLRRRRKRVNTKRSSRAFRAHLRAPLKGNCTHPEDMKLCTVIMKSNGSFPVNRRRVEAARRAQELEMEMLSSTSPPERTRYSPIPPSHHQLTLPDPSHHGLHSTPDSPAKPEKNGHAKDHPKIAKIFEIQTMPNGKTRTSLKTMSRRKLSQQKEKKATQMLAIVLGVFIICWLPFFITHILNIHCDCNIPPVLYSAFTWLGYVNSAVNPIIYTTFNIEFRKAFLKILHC
#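 PathHunter beta-arrestin assay in DiscoveRx D2 cells. Compounds were added with an EC20 of dopamine (50 nM final) for 90 min at 37 deg C. Luminescence was read 1 h after detection reagent, with 57 uM dopamine as the EC100 control.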
# PINK1 modulator: changes PINK1 expression; PINK1 immunofluorescence, high-content cytometry, 24 h; Potency, µM (doses to about 76.6 µM), for the others: at the top dose activation (PINK1 increase), hits mostly activators; actives 0.2% (n = 410,000); active = well fitted activation curve with a large enough effect; inconclusive = small, poorly fitted or top-dose-only effect; inactive = flat fitted curve, though single readings scatter; cell line not stated here;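 also: potency is read from the fitted curve at half-maximal effect; % of control where 0% means no effect; nearly all actives have a fitted effect of over 65% in size; a mitochondrial uncoupler was the plate control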
#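 Compound titrations (5 concentrations, 24 h) on a stable cell line; DMSO and CCCP controls. Endpoint: fixed-cell PINK1 immunofluorescence with mitochondrial, cell and nuclear markers, scanned by microplate cytometer.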
# TRPML1 blocker: blocks the human TRPML1 channel | Q9GZU1 | TRPML1-inducible cells, Ca2+ dye fluorescence, FDSS; hits give low values; inhibition of EC80 agonist-evoked calcium signal | activity change, negative = inhibition, % (no concentration beside the values) | actives 0.02% (n = 390,000) | AID 624415; in the data active means activity change below about -50%; inconclusive means about -30% to -50%; inactive means above about -30%;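 also: stimulus is agonist 54-4 at its EC80 concentration; % is scaled to controls: 0 for no effect and ±100 for the full control effect; compound concentration not given in the record; the text of the record puts the active cut at -80%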
#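 Calcium fluorescence in TRPML1-DL cells induced overnight with Tet: a 110 s read after compound pin addition, then a 110 s antagonist read after challenge with 54-4 at 4 uM final (EC80).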
# D2 ag: activates the human D2 dopamine receptor; P14416; DiscoveRx PathHunter D2 beta-arrestin, luminescence, 90 min; 100% = 57 uM dopamine signal; activation, % (test concentration not listed); actives 0.084% (n = 360,000); in the data active = activation above about 40%; inconclusive = about 15% to 40%; inactive = below about 15%; also: compound concentration not given in the record; the text of the record calls up to 30% inactive
#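 DiscoveRx PathHunter D2 beta-arrestin cells (2,100/well) attached overnight, then compound-stimulated 90 min at 37 C in HBSS/10 mM HEPES/0.1% Tween-20 buffer; beta-galactosidase complementation read by luminescence after 1 h at ambient temperature. Dopamine 57 uM final (EC100) as control.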
# Six1-Eya2 inh: Six1/Eya2 interaction inhibition; actives 0.56% (n = 360,000); activity change, % (test concentration not listed); AlphaScreen GST-Six1/His-Eya2 binding, biochemical; hits give low values; control for the full effect not named in the record; AID 651725; in the data active = activity change below about -65%; inconclusive = about -30% to -65%; inactive = above about -30%; also: % is scaled to controls: 0 for no effect and ±100 for the full control effect; compound concentration not given in the record
#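 AlphaScreen luminescence read after one hour at 37 °C in darkness. Pin-transferred compounds met GST-Six1 and His-Eya2 protein (5X stock 250 nM/500 nM) plus glutathione donor and Ni-chelate acceptor beads (5X, 50 ug/mL).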
# Active calls of the source: *; ? = inconclusive; . = no result given; & = joins results of further samples; [ ] = remark or other dose.
# Values run as follows: TRPML1 agonist	D2 PAM	PINK1 modulator	TRPML1 blocker	D2 ag	Six1-Eya2 inh
Fc1ccc(OCCOCCN2CCNCC2)cc1
    -0.1	-9	-0.3%	-13	1.4	-7
CCOC(=O)c1cc(C#N)c(SCC(=O)c2cc(C#N)c(SC)nc2C)[nH]c1=O
    2.7	-7	2.7%[38.3 µM]	-14	-2.7	-5
COc1ccc(-c2nc(CSCC(=O)N3CCC(C(N)=O)CC3)c(C)o2)cc1OC
    -1.0	-2	0.0%	4	-4.6	4
O=C(Nc1nnc(-c2ccco2)s1)C1CCCCC1
    -0.3	-6	-2.3%	-11	-2.5	-2
COc1cccc(C2CC(c3ccccc3)=NN2S(=O)(=O)c2ccccc2)c1OC (configuration not stated)
    0.1	-10	-0.8%	-1	-4.7	-9
COCCCNC(=O)c1cn(C)c(=O)c2c1c1ccccc1n2C
    -0.1	9	2.6%	-10	3.0	-1
CCOC(=O)c1c(-c2ccccc2)csc1NC(=S)NC(=O)c1ccccc1
    -0.2	2	5.9%	-1	-0.1	-2
Cc1sc2ncnc(SCC(=O)Nc3ccc(S(=O)(=O)N4CCOCC4)cc3)c2c1C
    0.6	-1	0.5%	-7	-1.5	-7
COC(=O)Nc1nc2ccc(Sc3ccccc3)cc2[nH]1
    0.4	-5	6.5%	15	-3.4	1
O=C(CCn1c(=O)c2cccn2c2cccnc21)N1CCN(c2cccc(C(F)(F)F)c2)CC1
    2.4	.	4.0%	19	.	.
CC(=O)N1CCN(C(=O)c2ccc(Cl)c(NC(=O)c3cccs3)c2)CC1
    0.1	-15	3.4%	11	-3.1	-1
COc1cc(C)ccc1OCC(=O)OCC(=O)c1ccc[nH]1
    -0.3	-2	0.6%	7	-1.0	0
CCOc1ccc(S(=O)(=O)N2CCCCC2)cc1NC(=O)CSCc1c(C)noc1C
    2.2	-9	1.0%	-14	-0.7	-4
O=C(CN1C(=O)c2ccccc2C1=O)Nc1cccc(Cl)c1
    0.0	-6	1.6%	-3	-3.4	-8
CCN1CCN(c2nc3c(c(=O)[nH]c(=O)n3C)n2CCCSc2ncccn2)CC1
    0.0	-22	0.9%	-12	-1.3	8
CN(/N=C/c1ccncc1)C1=NCCN1
    -1.3	-1	0.0%	3	-2.1	3
CCCNC(=O)Nc1cc(OC)c(OC)cc1Cc1nccc2cc(OC)c(OC)cc12
    1.5	-7	-3.3%	9	5.9	-10
COc1cc(OC)c2cc(C(=O)N[C@@H](Cc3ccccc3)C(=O)O)n(C)c2c1
    -0.6	1	2.0%	-10	0.3	6
Cn1c(=O)c2c(ncn2CC(COCc2ccccc2Cl)OCc2ccccc2Cl)n(C)c1=O (configuration not stated)
    2.7	-14	-3.2%	1	-3.1	-1
O=C(Nc1ccc(C(=O)N2CCCC2)cc1)c1ccc2c(c1)OCO2
    1.9	-5	-1.3%[38.3 µM]	14	1.7	-6

# The listing continues:
# Values run as follows: TRPML1 agonist	D2 PAM	PINK1 modulator	TRPML1 blocker	D2 ag	Six1-Eya2 inh
CC(=O)c1ccc(C(=O)N2CCCC(N3CCN(c4ccc(F)cc4)CC3)C2)s1 (configuration not stated)
    -0.1	-6	2.2%	8	-2.1	6
O=C(NCCCn1ccnc1)c1ccc(Cl)cc1
    0.2	-9	-1.0%	-5	0.3	0
O=C(CSc1nc(=O)n(CCCN2CCOCC2)c2c1CCCC2)Nc1ccccc1Cl
    -0.2	-34	-1.2%	-2	-4.2	0
CCCCCC(C)NC(=O)c1ccoc1C (configuration not stated)
    0.1	-2	4.7%	-5	-2.7	23
c1ccc(OCc2nnc(-c3ccccc3)o2)cc1
    2.2	15	0.1%	-6	-22	28
Nc1nc2nc(-c3ccc(F)cc3)cc(C(F)(F)F)n2n1
    1.2	1	0.7%	31	-6.0	10
CCOC(=O)CNc1ncnc2nc[nH]c12
    -0.5	-2	2.0%	-3	-6.2	-1
Cc1ccc(-c2noc(-c3ccccc3C(=O)NCc3ccco3)n2)cc1
    0.6	-7	4.7%	-10	-8.0	-2
CCOC(=O)C(=CNc1cc(C)nn1-c1ccc(Cl)cc1)C(=O)OCC
    2.5	4	0.6%	24	-1.1	4
O=C(C1CCCN(S(=O)(=O)c2cccc3nsnc23)C1)N1CC=C(c2ccccc2)CC1 (configuration not stated)
    0.3	-20	0.9%	-2	-2.1	-18
COc1ccc(OCC(=O)Nc2ccc3c(c2)nc(CCN2CCN(C)CC2)n3C)cc1
    -0.8	-12	-0.5%	-2	-4.4	3
O=C(CCCNC(=O)c1ccc(Cl)cc1)Nc1ccccc1C(F)(F)F
    -0.4	5	2.4%	7	2.2	0
CCC(=O)Nc1cccc(-c2nc3ccc(C)cc3o2)c1
    -0.3	-2	3.0%	-1	7.0	-3
COc1ccccc1NS(=O)(=O)c1cccc(NC(=S)NCCN2CCOCC2)c1
    0.4	-11	0.4%	-4	-3.3	3
CCOC(=O)c1cnn(-c2cc(C)c3ccccc3n2)c1N
    -0.2	18	0.9%	7	0.5	7
Cc1nnc(SCC(=O)c2cc(C)n(-c3c(C)n(C)n(-c4ccccc4)c3=O)c2C)s1
    -0.3	-4	-1.6%[38.3 µM]	-5	-0.7	-1
CCOC(=O)c1c(NC(=O)c2c(C)noc2C)sc2c1CCCCC2
    -0.9	-11	-0.5%	8	-3.2	-4
Cc1cc(C)n(CCC(=O)Nc2ccc(-c3ccno3)cc2)n1
    0.7	-12	2.7%	-5	-1.6	0
CCN(CC)CCN1CCN(c2cncc(-c3ccc4ccccc4c3)n2)CC1
    0.4	-12	11%	0	12	-11
Cc1ccnn1CC(=O)N/N=C/c1cn[nH]c1-c1ccccc1
    -0.2	0	2.6%	9	-2.9	-20

# Additional results follow.
# Values run as follows: TRPML1 agonist	D2 PAM	PINK1 modulator	TRPML1 blocker	D2 ag	Six1-Eya2 inh
CCOP(=O)(OCC)C(NC(=O)C(F)(F)F)c1ccccc1 (configuration not stated)
    0.8	-4	1.1%	-4	0.0	10
CC1=C(NCCc2ccccc2)CCC1=O
    -0.9	3	3.8%	7	-2.3	5
C[C@H](CO)N1C[C@H](C)[C@H](CN(C)Cc2cncnc2)Oc2cc(Br)ccc2S1(=O)=O
    0.7	-7	3.7%	-5	-9.3	14
COc1ccc(NC(=O)CCc2c(C)nn(-c3ccc(N4CCCCC4)nn3)c2C)cc1Cl
    0.7	.	3.3%	-15	.	.
CCCOn1c(-n2nc(C)cc2C)nc2ccccc2c1=O
    -1.2	-2	1.4%	2	-1.4	-1
COC(=O)c1ccccc1NC(=O)CSCC(=O)Nc1ccccc1OC
    -0.2	10	2.1%[38.3 µM]	5	-3.5	1
CC(=O)N1c2c(cc(Br)cc2S(=O)(=O)Nc2ccc(OC(F)(F)F)cc2)CC1C (configuration not stated)
    0.8	.	1.7%	-2	.	.
Cc1ccccc1CN1CCC(Oc2ccc(C(=O)N3CCCC3)cc2)CC1
    -0.9	-29	1.8%	-4	-2.8	-3
CCC(=O)Nc1ccccc1-c1nc2ccccc2n(CC(=O)c2ccc(Cl)cc2)c1=O
    1.3	.	1.7%	?	.	.
CC(C)[C@H](NC(N)=O)C(=O)Nc1ccc(F)c(Cl)c1
    1.2	-13	0.4%	8	-2.1	-3
CCc1nnc(NS(=O)(=O)c2ccc(NC(=O)c3cccc(OC(F)(F)C(F)F)c3)cc2)s1
    1.4	-2	-1.8%	-1	-9.3	?
CCOC(=O)C1(C(F)(F)F)N=C(N(C)C)OC(N(C)C)=N1
    -0.5	5	-1.9%	1	-1.4	14
Cc1nnc(SCC(=O)N2CCC(c3noc4ccc(F)cc34)CC2)s1
    -0.1	-2	-10%[38.3 µM]	6	-0.5	1
CCOC(=O)CSC1=C(C#N)C(c2ccccc2C)C2=C(CCCC2=O)N1 (configuration not stated)
    0.0	-23	1.1%	14	1.6	0
CC(C)(C)C1(C)OC(C(=O)NC2CCCCC2)C(C(=O)NC2CCCCC2)O1 (configuration not stated)
    2.3	-1	11%[38.3 µM]	-9	0.4	2
COc1cc2c(C#N)c(N3CCCC3)nc(N)c2c(N)n1
    -0.4	-7&-1	0.0%&0.5%	-7	1.5&-0.3	-22&-7
CCC(=O)NS(=O)(=O)c1cccnc1Nc1ccc(Cl)cc1
    0.7	-5	-3.5%	-3	0.7	9
C1=C(c2ccccc2)CCN(c2nc3ccccc3n3cnnc23)C1
    1.1	-12	2.4%	8	2.8	-23
CCOc1ccc(C(=O)NCC(c2cccs2)N(C)C)cc1 (configuration not stated)
    -0.4	-39	-4.4%	-6	-2.1	-1
O=C(N/N=C/c1sc2ccccc2c1O)c1ccccc1
    15	-4	1.3%	19	-3.4	-87*

# Record cards, as listed above. Order of values: TRPML1 agonist, D2 PAM, PINK1 modulator, TRPML1 blocker, D2 ag, Six1-Eya2 inh
# CCC(=O)Nc1ccccc1-c1nc2ccccc2n(CC(=O)c2ccc(Cl)cc2)c1=O across the screens: 1.3, ., 1.7%, ?, ., .
# CCC(=O)NS(=O)(=O)c1cccnc1Nc1ccc(Cl)cc1 across the screens: 0.7, -5, -3.5%, -3, 0.7, 9
# COC(=O)c1ccccc1NC(=O)CSCC(=O)Nc1ccccc1OC across the screens: -0.2, 10, 2.1%[38.3 µM], 5, -3.5, 1
# Cc1nnc(SCC(=O)N2CCC(c3noc4ccc(F)cc34)CC2)s1 across the screens: -0.1, -2, -10%[38.3 µM], 6, -0.5, 1

# Additional compounds
# Values run as follows: TRPML1 agonist	D2 PAM	PINK1 modulator	TRPML1 blocker	D2 ag	Six1-Eya2 inh
O=C(O)c1cc2c(cc1NC(=O)c1c(F)cccc1Cl)OCCCO2
    0.9	-6	-2.7%	-21	-4.6	59
COc1ncc(-c2ccc(N3C(c4ccsc4)=Cc4ccc(F)cc4C3CC(=O)c3ccco3)cc2)cn1 (configuration not stated)
    0.3	.	5.2%	.	.	0
Cc1cc([N+](=O)[O-])ccc1P(=O)(O)c1ccc([N+](=O)[O-])cc1C
    -0.3	-10	-2.8%	3	-4.4	-12
COc1ccc(CN2C(=O)C(CC(=O)NCCCCc3ccccc3)CC(C(=O)N(C(C)C)C(C)C)=C2C)cc1 (configuration not stated)
    1.4	-5	12%	47	-6.9	-5
CC1(C(=O)O)CCC(C(=O)NCCc2ccccc2)C1(C)C (configuration not stated)
    0.4	-16	1.2%	-5	-1.1	-3
CC(=O)c1ccc(C(=O)N(Cc2cccnc2)c2nc3c(C)c(C)ccc3s2)cc1
    -0.2	.	0.1%	?	.	.
CCOc1ccc(C(C)=O)cc1CC(C(N)=O)C(N)=O
    1.5	-1	0.1%	9	-1.2	3
COc1ccc(OC)c2sc(N3CCN(C(=O)CCS(=O)(=O)c4ccc(F)cc4)CC3)nc12
    0.6	.	0.1%	-5	.	.
COC(=O)Cc1c(O)ccn(Cc2cccc(C(F)(F)F)c2)c1=O
    -0.3	-3	-1.2%	3	-4.4	13
O=S(=O)(Nc1ccc(C(O)(C(F)(F)F)C(F)(F)F)cc1)c1cccc2cccnc12
    -0.1	-7	3.7%	12	-3.0	2
Cc1ccc(NC(=S)Nc2cc(-c3ccccc3)[nH]n2)cc1Cl
    0.2	-12	8.1%	7	2.0	-7
C/C(=N\OC(=O)C1CC1)C1CC1c1ccc(F)cc1 (configuration not stated)
    2.9	-1	2.5%	-3	1.4	4
